Screening data: PubChem, several laboratories
Mtb H37Rv: M. tuberculosis H37Rv growth inhibitors, H37Rv strain (AID 1626); 220,000 tested, 0.95% active; one-dose inhibition, % at 10 µM; IC50 in µM for titrated hits; M. tuberculosis H37Rv growth inhibition; higher % means a stronger effect;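 active = confirmed in a dose series; inconclusive = inhibition above 80% but not taken into the dose series; inactive = below 80% or under 30% at every dose of the series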;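 note: bacteria incubated seven days before Alamar blue readout; 0% = bacteria only wells and 100% = bacteria with antibiotic wells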
YopH PTP inh: YopH tyrosine phosphatase inhibitors, primary screen, biochemical, fluorescence Ex485/Em525; YopH tyrosine phosphatase [Yersinia enterocolitica]; inhibition, %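 (about 10 µM by stock and volumes)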; 140,000 tested, 0.16% active; AID 898, 2007;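 active = inhibition of 50% or more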;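 note: controls were vehicle for no effect and minimum signal wells for full effect; inactives centre near -20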
Mtb bLac sens: beta-lactam sensitization of Mtb H37Rv, H37Rv | inhibition, % at 25 µM | 330,000 tested, 0.27% active | M. tuberculosis H37Rv growth with meropenem, percent inhibition; hits of this screen are not shown here;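 active = about 74% or more and at least 40 points above the plate without the antibiotic, then above 30% in a dose series; inconclusive = first-round hits that could not be retested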;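 note: growth measured after seven days incubation then overnight dye step; 0% = bacteria only wells and 100% = bacteria with antibiotic; twin plates without the antibiotic show which effects depend on it; some results filed as inactive read as strong as hits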
Arbovirus anti: antivirals against arbovirus infection, primary screen, cell-based, full library, 10K replicate subset. arbovirus infection cell-based antiviral screen. inhibition, % at 10 µM. 200,000 tested, 0.37% active. AID 1251, 2008;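 active = inhibition from about 30%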;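 note: bluetongue infection of BSR cells; cell survival read as ATP light after 72 h; 0% = infected wells without compound and 100% = uninfected wells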
RecA splice inh: Mtb RecA intein splicing inhibitors, primary screen, biochemical, fluorescence, HTS. cell-free RecA intein splicing. inhibition, %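 (about 9 µM by stock and volumes)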. Protein RecA (Mycobacterium tuberculosis (strain ATCC 25618 / H37Rv)), P9WHJ3. AID 2221, 2009. 290,000 tested, 0.75% active; in the data active = inhibition above about 30%; inconclusive = no clear call, values can overlap the other calls;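 note: 0% = vehicle wells and 100% = reference inhibitor control wells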
Target sequence (P9WHJ3 whole entry, looked up, canonical isoform): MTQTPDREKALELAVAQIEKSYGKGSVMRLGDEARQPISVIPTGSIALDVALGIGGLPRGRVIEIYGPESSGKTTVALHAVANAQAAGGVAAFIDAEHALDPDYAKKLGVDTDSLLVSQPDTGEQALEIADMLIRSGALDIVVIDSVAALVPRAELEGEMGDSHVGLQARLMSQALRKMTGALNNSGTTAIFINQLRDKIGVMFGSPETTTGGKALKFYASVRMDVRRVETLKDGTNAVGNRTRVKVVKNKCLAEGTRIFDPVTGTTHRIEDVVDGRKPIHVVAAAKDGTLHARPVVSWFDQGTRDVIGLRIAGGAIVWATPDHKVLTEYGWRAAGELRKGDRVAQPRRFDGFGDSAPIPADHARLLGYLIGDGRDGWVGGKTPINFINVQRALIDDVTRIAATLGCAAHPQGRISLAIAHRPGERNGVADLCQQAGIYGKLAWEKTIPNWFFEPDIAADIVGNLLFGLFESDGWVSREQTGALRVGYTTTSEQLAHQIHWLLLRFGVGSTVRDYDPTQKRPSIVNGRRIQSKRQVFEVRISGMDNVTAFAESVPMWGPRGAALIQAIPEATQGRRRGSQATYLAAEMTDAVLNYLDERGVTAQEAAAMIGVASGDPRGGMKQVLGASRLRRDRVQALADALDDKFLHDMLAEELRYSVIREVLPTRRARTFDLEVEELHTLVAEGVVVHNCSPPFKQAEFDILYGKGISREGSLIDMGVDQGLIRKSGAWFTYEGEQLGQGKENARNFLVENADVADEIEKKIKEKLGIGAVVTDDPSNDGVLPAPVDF
Arbovirus anti repeat: second read-out of Arbovirus anti, no call of its own (marks repeat the call); inhibition, %; measured here: 10K subset replicate screen; many hits read low in the repeat;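 first of two repeat runs on a subset; 0% = infected and 100% = uninfected wells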
An asterisk follows results filed as active; ? = inconclusive; nt = not tested or not shown.

SMILES | Mtb H37Rv | YopH PTP inh | Mtb bLac sens | Arbovirus anti | RecA splice inh | others
CC1(C)Oc2ccc3ccc(=O)oc3c2C(N2CCCCC2)C1O (centres undefined) | -2% | -190 | -3 | 7 | -2.1 | Arbovirus anti repeat=8
COC1=C(Nc2ccc(OC)cc2)C(=O)c2ccccc2C1=O | 8% | -19 | 5 | -23 | 5.7
CCC(C)(C)NC(=O)c1ccc2c(c1)N(CC(=O)OC)C(=O)C(C)(C)O2 | -2% | -34 | 16 | 13 | -0.8
Cc1ccc(C(=O)OC(C)C(=O)NC2CCCCC2C)cc1S(=O)(=O)N1CCOCC1 (centres undefined) | nt | nt | -11 | nt | 0.4
CCOC(=O)C(O)(NC(=O)c1cccnc1)C(F)(F)F (centres undefined) | 11% | -4 | -1 | 11 | 0.7
O=[N+]([O-])c1cc(Br)c(O)c(C=Nc2ccc(N3CCOCC3)cc2)c1 | 4% | nt | 2 | -4 | -0.5
Cc1nnc(SCC(=O)Nc2sc3c(c2C(=O)c2ccccc2)CCCC3)s1 | 5% | -11 | 9 | 12 | -5.4
CCC(C(=O)Nc1ncc(C)s1)c1ccccc1 (centres undefined) | 4% | nt | 8 | 6 | nt
Cc1ccc(Nc2c(-c3ccc(N4CCOCC4)cc3)nc3ncccn23)c(C)c1 | nt | -27 | 4 | -14 | -28
O=C(c1ccco1)N1CCN(S(=O)(=O)c2ccc([N+](=O)[O-])cc2)CC1 | 2% | nt | 3 | -4 | -2.6
CN1CCCCCC1=Nc1ccccc1C#N | -5% | -40 | -7 | 5 | -0.4
CCN(CC)CCN=Cc1c(O)n(CCc2ccccc2)c(=O)[nH]c1=O | 2% | 22 | 1 | 4 | 0.2
O=C(NC1(C(F)(F)F)Oc2ccccc2O1)N1CCCC1 | -10% | -24 | -3 | -3 | -3.2 | Arbovirus anti repeat=6
O=[N+]([O-])c1ccc(N2CCCC2)cc1NC(c1ccccc1)c1ccccc1 | 4% | -43 | 15 | -4 | -1.7
COc1ccccc1OCC(=O)Nc1nnc(-c2ccco2)s1 | -12% | -55 | nt | 5 | -2.5
Cc1cccc(C(=O)NCc2nnc(SCC(=O)NC(C)c3ccccc3)n2C)c1 (centres undefined) | -3% | -11 | -3 | 4 | 0.0
CC(C)(C)c1cc(C(=O)N/N=C/c2ccc(F)cc2)n(-c2ccccc2)n1 | 6% | -15 | 24 | -8 | -0.1
COc1cc(CNCCN(C)C)c(Br)cc1OC1CCCC1 | 29% | nt | 83 | -7 | 2.0
Cc1ccc(S(=O)(=O)N2CCN(CC3CC4C=CC3C4)CC2)cc1 (centres undefined) | nt | nt | -3 | nt | 0.8
Cc1cc(NC(=O)c2ccc(S(=O)(=O)N3CCc4ccccc43)cc2)no1 | 2% | nt | 2 | -4 | 0.7

Of the compounds above, these contain fluorine:
SMILES | Mtb H37Rv | YopH PTP inh | Mtb bLac sens | Arbovirus anti | RecA splice inh | others
CCOC(=O)C(O)(NC(=O)c1cccnc1)C(F)(F)F (centres undefined) | 11% | -4 | -1 | 11 | 0.7
O=C(NC1(C(F)(F)F)Oc2ccccc2O1)N1CCCC1 | -10% | -24 | -3 | -3 | -3.2 | Arbovirus anti repeat=6
CC(C)(C)c1cc(C(=O)N/N=C/c2ccc(F)cc2)n(-c2ccccc2)n1 | 6% | -15 | 24 | -8 | -0.1

Other compounds follow:
SMILES | Mtb H37Rv | YopH PTP inh | Mtb bLac sens | Arbovirus anti | RecA splice inh | others
COc1ccc(NC(=O)COC(=O)c2c3c(nc4ccccc24)CCCC3)cc1Cl | 3% | -7 | 10 | 3 | 11
COc1ccc(C2C(C#N)=C(N)N(N(C)C)C3=C2C(=O)CC(C)(C)C3)cc1OC (centres undefined) | nt | nt | 3 | nt | 0.9
CC(C)C(C(=O)NC(C)(C)C)N(CCN1CCOCC1)C(=O)CNS(=O)(=O)c1ccccc1 (centres undefined) | nt | nt | -1 | nt | 4.1
Cc1cc(=O)[nH]c(CN2CCC(c3ccccc3)CC2)n1 | 7% | nt | -6 | 3 | -2.7
O=C(NCC1CCCO1)c1ccc(COc2ccccc2)cc1 (centres undefined) | nt | nt | -1 | nt | 0.6
COc1ccc(/C=C/C(=O)C2C(=O)C=C(C)OC2=O)cc1O (centres undefined) | 9% | -25 | 91 | 8 | -6.3
COc1ccccc1C(C)NC(=O)c1ccccc1SCC(=O)N1CCCC1 (centres undefined) | nt | nt | 2 | nt | 1.2
CCn1ncc(Br)c1C(=O)Nc1cccc(F)c1 | -1% | nt | 2 | 6 | 13
FC(F)(F)c1ccc(C2NCCc3sccc32)cc1 (centres undefined) | 0% | nt | -5 | 7 | -1.2
COc1ccc(-c2ccc(SCC(=O)NC3CCCCC3)nn2)cc1OC | nt | nt | 4 | nt | 3.3
CCOc1ccc(-n2nnnc2SCC(=O)NNC(=O)c2ccco2)cc1 | 4% | nt | 29 | -4 | -1.2
O=C(COc1ccc(S(=O)(=O)NC2CCCC2)cc1)N1CCCCC1 | nt | nt | -4 | nt | -1.4
COCCNC(=S)N(CCCN(C)C)Cc1cc2cc3c(cc2[nH]c1=O)OCCO3 | nt | nt | -5 | nt | -2.5
Cc1ccc(/C=N/n2cnnc2)s1 | -8% | -7 | 2 | -1 | -1.1
O=C(CCCOc1ccccc1)Nc1ccc(Br)cc1 | 3% | -16 | 88 | nt | 1.9
Cc1cccc(CN2CCN(Cc3cccc(-n4cccn4)c3)CC2CCO)n1 (centres undefined) | -3% | nt | 1 | 6 | 0.4
Cc1ccc(-c2nc3c(c(=O)c4ccccc4n3C)c(=O)n2-c2ccccc2)cc1 | 5% | -26 | -3 | 3 | -0.5
CC(=O)c1cccc(NC(=S)NC(=O)C(C)C)c1 | -8% | -26 | 0 | 9 | -1.4
CC1=C(C(=O)N2CCCC(C(=O)c3cccc4ccccc34)C2)OCCO1 (centres undefined) | 1% | nt | -11 | 2 | -2.6
Cc1ccc(N(CC(=O)NCc2cccs2)S(=O)(=O)c2cccs2)cc1 | 18% | -35 | 4 | 0 | -4.3
O=C(CCCl)N1CCCC2(CCCCC2)C1 | -4% | nt | 1 | nt | -1.0
C=CCN(CC=C)CC(=O)Nc1ccc(S(N)(=O)=O)cc1 | -4% | -26 | 3 | 2 | -0.2
CN1CCN(c2cc(N3CCCC3)c([N+](=O)[O-])cc2F)CC1 | 7% | -19 | -5 | -8 | -1.2
COc1ccc(/C=N/NC(=O)c2nc(-c3ccccc3)cc(-c3ccccc3)n2)cc1OC | -6% | -4 | -2 | 17 | -0.6
COCCCNC(=O)C1CCN(C(=O)Nc2ccc(Cl)cc2)CC1 | -6% | 9 | 5 | -1 | 5.9
COc1ccc(N(CC(=O)N2CCN(c3ccc(Cl)cc3)CC2)S(=O)(=O)c2c(C)noc2C)cc1 | nt | nt | 2 | nt | 2.7
O=C(OCc1ccc(Cl)c(Cl)c1)c1ccccn1 | 73% | -7 | 99 | -1 | 2.2
CCOc1ccccc1-c1cc(-c2ccccc2)nc2c1c(=O)n(C)c(=O)n2C | nt | -16 | 7 | 6 | 0.0
CCCCCNc1nc2ccccc2nc1NS(=O)(=O)c1cccs1 | 0% | -19 | -15 | 32* | -3.8
CCOC(=O)c1c(/N=C/C2C(=O)CC(C)(C)CC2=O)sc2c1CCCC2 | 4% | nt | -1 | 1 | -8.1
COc1ccc(NC2c3ccccc3C(=O)N2Cc2ccco2)cc1OC (centres undefined) | 8% | -17 | -2 | 7 | -2.4 | Arbovirus anti repeat=2
CC1CCN(S(=O)(=O)c2ccc(C(=O)NCc3ccco3)cc2)CC1 | -6% | nt | -11 | 4 | 1.4
O=C(CSc1nnc(Cc2ccccc2)n1Cc1ccco1)NC1CCCC1 | -6% | -8 | -17 | 0 | 2.3
COC(=O)c1sccc1-c1ccc(/C=N/OC(=O)c2cccs2)o1 | -3% | nt | 5 | nt | 1.0
Cc1noc(C)c1COc1ccc(C(=O)OCC(=O)Nc2ccc(C(=O)N(C)C)cc2)cc1 | nt | nt | -4 | nt | -1.3
COc1ccc(S(=O)(=O)N2CCCC2CNC(=O)C(=O)NCCc2ccccc2)cc1 (centres undefined) | nt | nt | 2 | nt | 1.0
CC(C)Sc1nc2c(c(=O)[nH]c(=O)n2C)n1CCc1ccccc1 | -1% | -42 | 2 | 0 | -0.7
O=C(Nc1ccccc1)N(CCc1ccncc1)C1CCCCC1 | -2% | -44 | -7 | 5 | -2.2 | Arbovirus anti repeat=-6
CC#CCN1c2ccccc2[C@]23C[C@@H](C(=O)OC)N(C(C)=O)C2=NC(C(=O)OC)=C(C(=O)OC)[C@H]13 | 3% | nt | -12 | nt | 2.4
CCOc1ccc(N(CC(=O)NC(C)C)C(=O)CCC(=O)Nc2ccccn2)cc1 | nt | nt | -1 | nt | -4.3
C=C(C)COc1ccc2c(C)c(CC(=O)N3C[C@H]4C[C@@H](C3)c3cccc(=O)n3C4)c(=O)oc2c1 | nt | nt | -3 | nt | -2.6
Cc1ccc(N=C(NO)c2nonc2N)c(C)c1 | -1% | -23 | 4 | 8 | 0.2
OC(COCc1ccccc1)CN1CCN(Cc2ccc3c(c2)OCO3)CC1 (centres undefined) | -2% | nt | -2 | 0 | -0.6
Cc1ccsc1/C=N/NC(=O)CN1CCN(Cc2ccccc2)CC1 | -5% | nt | -6 | nt | -5.9
COc1cccc(/C=N/N2CCN(c3ccncc3S(=O)(=O)N3CCCCC3)CC2)c1 | 0% | -23 | -1 | 5 | 0.4
O=C(CN(Cc1ccccc1)C(=O)CCC(=O)Nc1nccs1)NCc1ccco1 | -11% | -32 | -7 | 4 | 6.7
O=C(C1CC1)N1CCC(C(O)(c2ccccc2)c2ccccc2)CC1 | 2% | -13 | 3 | -2 | -1.1
COc1ccc(N(Cc2cc3ccc(C)cc3[nH]c2=O)S(=O)(=O)c2ccccc2)cc1 | nt | nt | -3 | nt | 0.5
Cc1ccc(OCCN(C)C(=O)C2CCC(=O)N(CCCN3CCCC3=O)C2)cc1 (centres undefined) | nt | nt | 0 | nt | 0.9
COC(=O)c1scc(S(=O)(=O)c2ccccc2)c1N | 1% | nt | 0 | 11 | -2.0
Cn1c(=NC(=O)CSCC(=O)N2CCCC2)sc2ccccc21 | -2% | 9 | -6 | 1 | 0.3
COc1cccc(C2N(c3ccccn3)C(=O)C3CCCN32)c1OC (centres undefined) | -7% | -35 | -5 | 4 | -0.6
CCCc1c(C(=O)Nc2ccc(C(F)(F)F)cc2)cnn1-c1ccccc1 | 0% | nt | 48 | nt | -0.1
CC1=CC2=NC(=O)CC(C)(C(=O)N(CC(=O)NC3CCCC3)Cc3ccc(Cl)cc3)N2C=C1 (centres undefined) | nt | nt | -6 | nt | -0.8
O=C(Nc1ccc(F)cc1)c1cccnc1N1CCOCC1 | -4% | -71 | -13 | -3 | nt
Cc1nn(CCC#N)c(NC(=O)c2ccc(Cl)cc2Cl)c1P(=O)(Nc1ccc([N+](=O)[O-])cc1)N1CCOCC1 (centres undefined) | 4% | 2 | -11 | 3 | -1.6
Cc1nn(C)c(C)c1-c1c(C#N)c(N)nc2c1CCCCCC2 | 0% | -33 | 17 | -5 | 1.8
O=C1C=C(NCc2ccccc2)c2ccccc2C1=O | ? | nt | nt | -35 | 92*
O=C(NCc1nnc(SCc2ccc(F)cc2)n1-c1ccccc1)C12CC3CC(CC(C3)C1)C2 | 14% | -9 | 65 | 0 | 11
COc1ccc(NC(=O)Cn2nnc(C(=O)Nc3ccc(F)c(Cl)c3)c2N)cc1OC | nt | nt | -4 | nt | 0.6
(further entries)
SMILES | Mtb H37Rv | YopH PTP inh | Mtb bLac sens | Arbovirus anti | RecA splice inh | others
Cc1ccc(CN2C(=O)CCC2C(=O)N2CCN(c3ccc(F)cc3)CC2)cc1 (centres undefined) | -3% | -16 | -20 | 2 | -0.5
O=C(Nc1ccccc1Cl)N1CCN(c2ccc3nnc(-c4ccccc4)n3n2)CC1 | 17% | -43 | -2 | 1 | 0.9 | Arbovirus anti repeat=-3
CCCC(=O)NCCCc1nc2ccccc2n1C(C)C | 0% | 3 | -3 | 14 | 2.3 | Arbovirus anti repeat=5
Cc1ccc(C)c(NC(=O)CSc2nnc(CCCCCNC(=O)OC(C)(C)C)o2)c1 | 4% | -47 | -20 | -2 | 1.4
CN(Cc1ccccc1)C(=O)CN(c1ccc(F)cc1)S(=O)(=O)c1ccc2c(c1)OCCO2 | 5% | -13 | 0 | -17 | 5.0

This is a subset (hit frequency here may not be typical).
